MT1-MMP act inh: MT1-MMP (human) activation inhibition; P50281; HT1080 RFP-PRO-GFP cells, GFP/RFP ratio fluorescence, overnight; percent of plate control window, DMSO zero; GFP/RFP ratio change, % at 20 µM; 360,000 compounds, 0.061% hits; AID 651647;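 active means GFP/RFP ratio change of at least 30% with cell ATP level not reduced by more than half and red fluorescence within 50% of control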; further: strong numbers were not always called active
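Assay system – RFP-PRO-GFP reporter HT1080 cells · Compound dosing – single dose of 20 µM compound, 1% DMSO final · Incubation – overnight compound exposure at 37 °C · Measure – GFP/RFP fluorescence ratio · Benchmarks – DMSO wells and RFP-L50D-GFP cells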
Rce1 inh: yeast Ras-converting enzyme inhibition; yeast membranes, quenched prenylated peptide cleavage fluorescence; AID 2563; calls only; 290,000 compounds, 0.27% hits; Q03530;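 active means fall in fluorescence gain of 50% or more versus controls, with final raw signal at or below 3038400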;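 further: plate controls were neutral control wells for no effect and wells lacking membranes for full effect; tested at 10 µM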
Target sequence (Q03530 whole entry, looked up): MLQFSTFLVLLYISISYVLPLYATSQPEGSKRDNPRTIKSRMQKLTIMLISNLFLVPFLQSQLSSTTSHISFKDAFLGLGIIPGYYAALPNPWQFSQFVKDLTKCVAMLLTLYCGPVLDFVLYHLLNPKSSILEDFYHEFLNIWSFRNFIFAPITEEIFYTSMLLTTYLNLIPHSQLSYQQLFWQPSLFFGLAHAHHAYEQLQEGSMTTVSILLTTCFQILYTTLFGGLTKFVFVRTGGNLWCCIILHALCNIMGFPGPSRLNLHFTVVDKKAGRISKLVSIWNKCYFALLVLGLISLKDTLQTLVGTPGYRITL
PABP polyA inh: PABP-poly(A) binding inhibition | P11940 | PABP-poly(A) RNA binding, fluorescence polarization | inhibition, % at 35 µM | 290,000 compounds, 1% hits | AID 2014;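 active means 50% or more with normal probe brightness, or confirmed in later tests; about a fifth of its hits are not listed in these tables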;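 further: calls also rest on retests at 20 µM and on dose response follow-up; controls were probe without protein and protein plus probe with vehicle; some compounds called inactive have numbers as strong as hits; many hits fall short of the cut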
eIF4H FP inh: inhibitors of RNA binding by human eIF4H; AID 2012; 290,000 compounds, 0.94% hits; Q15056; eIF4H fluorescence polarization binding assay; inhibition, % at 35 µM;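 active means 50% or more with normal probe brightness, or confirmed in later tests; about a fifth of its hits are not listed in these tables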;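 further: calls also rest on retests at 20 µM and on dose response follow-up; 0% = protein and probe with vehicle and 100% = probe without protein; strong numbers were not always called active; many hits fall short of the cut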
CSC inhib: blocks cancer stem cells; 300,000 compounds, 1.1% hits; AID 2717; cancer stem cell-like cells viability, luminescence; inhibition, % at 7.5 µM;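 active means mean at 75% or more and at least half the replicates too; tested in HMLE shEcad cells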;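 further: 0% = median of negative and 100% = median of positive control wells; the first replicate is given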
Env fusion inh: blocks HIV Env-driven cell-cell fusion. HeLa-JRFL Env/CEM21 cell fusion, luciferase. inhibition, % at 12.3 µM. 360,000 compounds, 1.1% hits. AID 651610;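 active means mean replicate inhibition score of at least 50 and every replicate individually at or above 50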;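 further: 0% = plate neutral controls and 100% = maraviroc near 300 nM; one replicate is shown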
Yeast UUG start: yeast start codon fidelity modulation; S. cerevisiae UUG-firefly luciferase reporter, luminescence/redox ratio; activity score, % at 18.7 µM; 350,000 compounds, 0.13% hits; AID 602363;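 active means replicate mean at a twofold rise or more, about +100% in these data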;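 further: firefly luciferase made from a UUG start codon reports start codon fidelity; reporter light over untreated wells divided by growth signal over untreated wells; some hits fall short of that in this replicate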
eIF4H FP inh retest: also measured in eIF4H FP inh; calls as there; inhibition, %; compound at 20 µM; confirmation average;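 mean of two retest wells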
PABP polyA inh retest: second read-out of PABP polyA inh, no call of its own (marks repeat the call); inhibition, %; compound at 20 µM; confirmation repeats;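 mean of two retest wells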
MT1-MMP act inh RFP: second read-out of MT1-MMP act inh, no call of its own (marks repeat the call); RFP signal change, %; measured here: RFP expression control read;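 0 = vehicle wells; hits needed this value within 50% of zero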
* marks the source's active call; other numbers are inactive results; i = inactive; x = no result given; & = joins results of further samples; [ ] = dose if it differs, or a comment. Some of the compounds tested; the hit share may differ from the screen's.

SMILES	MT1-MMP act inh	MT1-MMP act inh RFP	Rce1 inh	PABP polyA inh	eIF4H FP inh	CSC inhib	Env fusion inh	Yeast UUG start	others
Cc1cccc(-n2c(Cc3cc(=O)[nH]c(=O)[nH]3)nnc2SCC(=O)NCC2CCCO2)c1 (configuration not stated)	0	3	x	-13	7	-19	6	4
COc1ccc(OC)c(NC(=O)c2cccnc2Sc2cc(C)ccc2C)c1	-7	-4	i	2	-3	-17	x	x
COc1cccc(-c2sc3ccc(OC)cc3c2C#CCC(C)O)c1 (configuration not stated)	-1	-3	x	x	x	113*	-25	42
COc1ccccc1NS(=O)(=O)c1ccc(C(=O)NCC(c2ccccc2OC)N(C)C)cc1 (configuration not stated)	1	4	i	7	6	x	x	-10
CCN(CC)CCC(c1ccc(N(C)C)cc1)c1c(OC)cc(OC)c2c(-c3ccccc3)cc(=O)oc12 (configuration not stated)	2	-4	x	-5	2	18	-2	-12
CC(=O)c1cccc(NC(=O)Nc2nc(C)cc(C)n2)c1	-4	-1	i	3	13	8	-38	-5
COc1ccc(C(=O)COC(=O)c2cc(=O)[nH]c3ccccc23)c(OC)c1	3	2	i	x	x	-17	-54	-4
CC1CCN(C(=O)COC(=O)Cc2c[nH]c3ccccc23)CC1	-3	3	i	-1	-9	-1	-8	-6
COc1ccc(NC(=O)CN2CCC(NC(=O)C3CCCCC3)CC2)cc1	1	-1	i	-8	0	-5	-15	-10
Cc1cccc(N(Cc2ccccc2)C(=O)c2ccccc2F)c1	-3	-2	i	-14	-9	-3	0	-13
C=CCNC(=O)c1ccccc1NC(=O)c1ccccc1N(C)S(C)(=O)=O	0	1	i	12	-2	-2	12	-10
O=C(Nc1cccc(Cl)c1)OCCN1CCN(Cc2ccccc2)CCC1=O	3	-4	i	62	-2	0	7	-15	eIF4H FP inh retest=-11;PABP polyA inh retest=1
Cc1nn(C)c(C(=O)N/N=C/c2cc3c(cc2Br)OCO3)c1Br	17	2	i	-9	1	8	x	-1
COC(=O)c1sccc1NC(=O)CC1C(=O)NCCN1C(=O)c1ccc(F)cc1 (configuration not stated)	0	1	i	-5	-2	-12	-2	-15
CC(C)NC(=O)Nc1cccc2c1O[C@H](CN(C)S(=O)(=O)c1cccs1)[C@@H](C)CN([C@H](C)CO)C2=O	-5	-2	x	x	x	-18	-41[16.7 µM]	1&8
CC(Oc1ccccc1Cl)C(=O)N(Cc1ccco1)C1CCS(=O)(=O)C1 (configuration not stated)	5	5	i	9	-2	1	x	x
COc1ccc(OC)c(/C=C/C(=O)OCC(=O)N2CCCCC2)c1	-1	-5	x	x	x	-23	-13	-2
COCCCNC(=S)NNC(=S)Nc1cccc(Cl)c1	7	2	i	0	-10	-11	11	-35
COc1ccc(Oc2nc3c(c(=O)n(C)c(=O)n3C)n2Cc2cccc(OC)c2)cc1	-3	-3	i	6	9	-3	x	-13
COc1ccc2c(C)cc(Sc3nnnn3-c3ccccc3)nc2c1	2	1	i	-11	-10	8	15	x
CCOC(=O)c1c(N/C=C(\C#N)c2nc(-c3ccc(OC(C)=O)cc3)cs2)sc2c1CCC2	2	1	x	x	x	x	5	-16
O=C(NCCNC(=O)c1cc(F)cc(F)c1)c1cc(F)cc(F)c1	7	0	i	5	-5	-6	-3	-18
COCCN(C(=O)COC(=O)c1ccccc1NCc1ccco1)c1c(N)n(Cc2ccccc2)c(=O)[nH]c1=O	-1	1	i	x	x	-15	-1	-1
Cc1ccc(NC(=O)CSc2nnc(-c3cccnc3)s2)cc1	-1	-2	i	1	4	x	-16	-10
CC(=O)c1c(C)[nH]c(C(=O)CSc2nnc(-c3ccco3)o2)c1C	5	-2	i	4	60	-14	-13	x	eIF4H FP inh retest=-1;PABP polyA inh retest=1
CC(=O)N(CCC(c1ccco1)C(C)C)Cc1ccc(OC(C)C)cc1 (configuration not stated)	-5	-4	i	5	4	13	5	-4
CC1(C)CNc2cc([N+](=O)[O-])ccc2S1	1	3	i	-3	-5	12	16	x
CSc1nc(-c2ccccc2)nc(N)c1C(C)=O	x	x	i	3	-4	-5	x	x
CCC1=C2CC[C@H]3C(=O)N(C)C(=O)[C@H]3[C@H]2[C@@]2(Cc3ccccc3)C(=NCC(=O)OC)OC(=O)N2C1=O	3	3	i	0	-4	-8	-6	-6
COc1ccc(C(=O)N/C(=C/c2cccs2)C(=O)NCCCn2ccnc2)cc1OC	-1	-2	i	1	-1	-10	2	-11
N#CC(C#N)=C1C=CC=CN1/C(=C\c1ccco1)C(=O)c1ccc(-c2ccccc2)cc1	-20	0	x	7	45	75*	-188	x
NC(=O)NC(=O)CSc1nc2cc([N+](=O)[O-])ccc2n1-c1cccc(C(F)(F)F)c1	-2	-7	i	6	3	84*	33	-3
COc1ccc(/C=C\C(=O)Oc2cccc(/C=N/NC(=O)Cc3ccc(OC)c(OC)c3)c2)cc1	3	-2	i	2	4	2	x	x
COc1ccc(NC(=O)c2cccc([N+](=O)[O-])c2)cc1	6	2	i	16	-2	-10	-24	x
Cn1cc([N+](=O)[O-])c(C(=O)NCc2cc3ccccc3[nH]2)n1	-3	2	i	-8	4	19	x	x
Cc1ccc(NS(=O)(=O)c2ccc(C(=O)N3CCCN(C)CC3)cc2)cc1	-6	-5	i	x	x	18	3	-16
Cc1ccc(OCCC(=O)OCC(=O)NC(=O)NC2CCCCC2)cc1	-1	0	i	x	x	-24	-36	8
CC(=O)n1cc([C@H]2C=C(C(N)=O)O[C@@H](OCc3ccc(CO)cc3)C2)c2ccccc21	-6	2	i	x	x	7	-2	1
Cc1ccc(S(=O)(=O)NC(=O)c2cccc(C)c2)cc1	-2	5	i	4	-5	3	9	-8
CCCCC(=O)N1C/C=C\C(c2ccc(OC)cc2)N(Cc2ccc(F)cc2)C(=O)[C@H]1Cc1ccccc1 (some centres not stated)	-5	-10	i	-2	-14	37	x	2
CCn1c(SCC(=O)NC2CC2)nnc1-c1ccc(OC)cc1	-1	1	i	0	-3	3	-2	-10
CC1CCCCN1C(=O)CN(C)S(=O)(=O)c1cccc2nsnc12 (configuration not stated)	-6	-1	i	x	x	-16	-8	-14
Nc1[nH]n(-c2ccccc2)c(=O)c1N=Nc1ccccc1	7	6	i	16	-8	23	-55	-10
CC(C)OCCCN1CC(=O)N2C(c3cccc([N+](=O)[O-])c3)c3[nH]c4ccccc4c3C[C@H]2C1=O (some centres not stated)	-1	-1	i	9	2	2	11	13
COc1ccc(CCNC(=O)C(=O)c2cn(CC(=O)N3CCCC3)c3ccccc23)cc1	1	-1	x	x	x	x	-4	-10
c1ccc(-n2ncc3c2ncn2nc(-c4ccco4)nc32)cc1	-6	0	i	10	50*	-2	x	-22	eIF4H FP inh retest=59*;PABP polyA inh retest=24
O=C(NCCSCc1c(F)cccc1Cl)Nc1ccccc1	1	-5	i	-11	0	14	x	-1
COc1ccc(/C=C/C(=O)c2cc3cccc(OC)c3oc2=O)cc1	1	2	i	16	82	x	-2	1	eIF4H FP inh retest=9;PABP polyA inh retest=16
COc1cc(NC(=O)c2sc3ncn(CC(=O)N4CCCCC4C)c(=O)c3c2C)cc(OC)c1OC (configuration not stated)	4	3	x	x	x	x	-9	-4
Cc1ccc(C(C(=O)NC2CCCCC2)N2CCCC2)cc1 (configuration not stated)	-1	-2	i	19	4	-13	-68	-9
CCN(CC)S(=O)(=O)c1cc(C(=O)OCC(=O)Nc2ccc(-c3nc4ccc(C)cc4s3)cc2)ccc1F	5	-7	i	-3	-7	3	-108	x
O=C(Nc1ccncc1)c1cc(F)cc(F)c1	-1	-2	i	-8	-10	-8	x	-13
CCC(=O)Nc1sc2c(c1C#N)CCCCC2	-1	-1	i	-5	1	-14	x	-13
Cc1ccc(-c2cc(Cc3ccc(F)cc3)c(=O)[nH]n2)cc1	-1	-6	i	-1	-17	-9	1	-17
Cc1cccc(N2CCN(S(=O)(=O)c3c(C)nc4scc(C)n4c3=O)CC2C)c1 (configuration not stated)	0	-9	i	18	-5	-6	1	-29
O=C(NCc1ccccc1)c1nc[nH]c1C(=O)N1CCN(c2ccccc2)CC1	7	4	x	x	x	-9	5	10
c1ccc(-c2cn3c(n2)CCC3)cc1	-4	0	i	-1	-1	-10	x	1
COc1cc(NC(=O)COc2ccc(Cl)cc2)ccc1-c1cc2ccccc2oc1=O	1	-8	i	8	-12	47	22	x
O=C(CN1CCN(Cc2ccc(Cl)cc2)CC1)N1CCc2ccccc21	0	-2	i	8	-3	22	0	-5
CC1(C)CC(=O)C(C=NC2CC(C)(C)NC(C)(C)C2)=C(O)C1	2	-2	i	-2	2	-5	x	-14

Additional compounds.
SMILES	MT1-MMP act inh	MT1-MMP act inh RFP	Rce1 inh	PABP polyA inh	eIF4H FP inh	CSC inhib	Env fusion inh	Yeast UUG start	others
COc1ccc(-c2noc(CCC(=O)NCCCN3CCN(c4ccccc4F)CC3)n2)cc1	5	-3	i	5	-2	-5	19	-6
O=C(Cc1cccc2ccccc12)Nc1ccccc1C(=O)O	1	13	i	13	-10	45	-237	-10
Cn1c(=O)c([N+](=O)[O-])c(NCC(O)c2ccccc2)c2ccccc21 (configuration not stated)	2	1	i	0	-7	-32	x	x
CCN1CCC(NC(=O)Nc2ccc(F)cc2)CC1	1	2	i	-4	10	-14	0	x
Cc1cc(OC(F)F)ccc1NC(=O)Nc1ccc([N+](=O)[O-])cc1	0	-5	i	-9	0	-28	22	-13
CC(=O)NCCNc1nc2cc(-c3cc(F)ccc3C)sc2c(=O)n1C	2	0	x	x	x	x	21	-19
COc1ccc(C)cc1NC(=O)CCNS(=O)(=O)c1cccc(C(F)(F)F)c1	3	1	i	10	-4	-11	28	13

Among those listed so far, 8 have an aryl thioether with sulfur outside any ring.
SMILES	MT1-MMP act inh	MT1-MMP act inh RFP	Rce1 inh	PABP polyA inh	eIF4H FP inh	CSC inhib	Env fusion inh	Yeast UUG start	others
Cc1cccc(-n2c(Cc3cc(=O)[nH]c(=O)[nH]3)nnc2SCC(=O)NCC2CCCO2)c1 (configuration not stated)	0	3	x	-13	7	-19	6	4
COc1ccc(OC)c(NC(=O)c2cccnc2Sc2cc(C)ccc2C)c1	-7	-4	i	2	-3	-17	x	x
COc1ccc2c(C)cc(Sc3nnnn3-c3ccccc3)nc2c1	2	1	i	-11	-10	8	15	x
Cc1ccc(NC(=O)CSc2nnc(-c3cccnc3)s2)cc1	-1	-2	i	1	4	x	-16	-10
CC(=O)c1c(C)[nH]c(C(=O)CSc2nnc(-c3ccco3)o2)c1C	5	-2	i	4	60	-14	-13	x	eIF4H FP inh retest=-1;PABP polyA inh retest=1
CSc1nc(-c2ccccc2)nc(N)c1C(C)=O	x	x	i	3	-4	-5	x	x
NC(=O)NC(=O)CSc1nc2cc([N+](=O)[O-])ccc2n1-c1cccc(C(F)(F)F)c1	-2	-7	i	6	3	84*	33	-3
CCn1c(SCC(=O)NC2CC2)nnc1-c1ccc(OC)cc1	-1	1	i	0	-3	3	-2	-10
